ugtP null kill = growth inhibition of S. aureus ugtP deletion strain. S. aureus RN4220 ugtP deletion, OD600 growth, 16 h; some inactives read as strong as hits. growth inhibition, % (no concentration beside the values). 0.54% of 330,000 active. AID 1259309;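 active = z-score under -3 and OD600 up to 0.15 on both plates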;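 note: plate controls were untreated wells for no effect and antibiotic for full effect; wells of about 80 µL received 100 nL stock; the first replicate is given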
BJeLR lethal = BJeLR cell viability loss | 0.17% of 300,000 active | BJeLR (HRASV12) viability, CellTiter-Glo ATP luminescence, 48 h; reference of the scale not given here | AID 1554 | inhibition, % (no concentration beside the values);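 active = replicate mean above 50%; inconclusive = above 50% but judged a plate artefact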;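 note: 50 nL library stock added to about 25 µL; numbers are from one replicate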
RN4220 kill = S. aureus RN4220 growth inhibition; inhibition, % (concentration not given with the values); OD600, 16 h; AID 1259311; 0.33% of 330,000 active;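 active = z-score of -3 or lower and OD600 up to 0.18 on both plates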;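 note: plate controls were untreated cells for no effect and reference antibiotic for full effect; stock transfer was 100 nL into about 80 µL; one replicate is shown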
Mtb hypoxia rep = reduces hypoxia-regulated biosensor signal in M. tuberculosis; fluorescence inhibition, % (test concentration not listed); AID 1159583; 0.1% of 300,000 active; M. tuberculosis hypoxia-regulated fluorescent reporter, fluorescence;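 active = 35 to 45% if threefold the growth effect, above 45% if 1.5-fold the growth effect; inactive = the rest, general growth blockers included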;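 note: wells of about 50 µL received 100 nL stock; 0% = vehicle wells and 100% = reference inhibitor wells; whole bacteria with a GFP reporter of the hypoxia response; strong numbers were not always called active; many hits fall short of the cut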
PrP 5UTR inh = inhibition of PrP 5' UTR reporter expression; cell-based PrP 5' UTR mRNA reporter, plate reader; inhibition, % (no concentration beside the values); 0.35% of 340,000 active;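 active = every replicate at 50% or more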;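 note: 0 = median of the neutral control wells; tested in H4 reporter cells; numbers are from one replicate; inactives centre near -14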
Autofluor counter = counter-screen for toxin protease inhibitors: compound fluorescence; 3.1% of 360,000 active; compound autofluorescence counterscreen, microsphere flow cytometry; stronger effect = higher value; fluorescence intensity (no concentration beside the values);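 active = at least 3 SD above the mean of all compounds, about 16000 in these data; inconclusive = too few beads counted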;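 note: 100 nL of 1 mM stock went into each well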
Mtb hypoxia rep growth = second read-out of Mtb hypoxia rep, no call of its own (marks repeat the call); growth inhibition, %; measured here: M. tuberculosis growth (absorbance);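 0% = vehicle and 100% = reference antibiotic; read after six days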
An asterisk follows results filed as active; ? = inconclusive; . = not tested or not shown. Compounds as they come; about 4% have a hit in one of these screens.

Preview (2 entries):
SMILES | ugtP null kill | BJeLR lethal | RN4220 kill | Mtb hypoxia rep | Mtb hypoxia rep growth | PrP 5UTR inh | Autofluor counter
O=C(O)CC(Cc1ccc(Br)cc1)C(=O)O (stereo not given) | 5.2 | -6.8 | 4.5 | 8.2 | 6.3 | -17.2 | 3147
Cc1ccc2c(c1)C1C(CO2)C(c2ccccc2)[C@]2(C)C(=O)N(Cc3ccc(Cl)cc3)CC(=O)N12 (stereo not given in full) | -40.4 | . | -8.6 | 0.0 | 6.3 | . | .

Results, from the first entry:
SMILES | ugtP null kill | BJeLR lethal | RN4220 kill | Mtb hypoxia rep | Mtb hypoxia rep growth | PrP 5UTR inh | Autofluor counter
O=C(O)CC(Cc1ccc(Br)cc1)C(=O)O (stereo not given) | 5.2 | -6.8 | 4.5 | 8.2 | 6.3 | -17.2 | 3147
Cc1ccc2c(c1)C1C(CO2)C(c2ccccc2)[C@]2(C)C(=O)N(Cc3ccc(Cl)cc3)CC(=O)N12 (stereo not given in full) | -40.4 | . | -8.6 | 0.0 | 6.3 | . | .
CSc1cccc(NC(=O)CSc2ncccc2C(=O)Oc2cccc([N+](=O)[O-])c2)c1 | -9.6 | -7.3 | 0.9 | 9.1 | 8.9 | -12.8 | 1979
CN(C)c1cc(NC(=O)CNC(C)(C)CC(C)(C)C)c2ccccc2n1 | -5.8 | 5.6 | 0.9 | 2.0 | 7.4 | -7.4 | 4496
Cc1cccc(NC(=O)CN(C)S(=O)(=O)c2cccc3nsnc23)c1C | 1.9 | -7.9 | 5.1 | 2.9 | 6.8 | -6.7 | 6997
CCOc1ccc(Oc2ccc(S(=O)(=O)N3CCOCC3)cc2NC(=O)C2=COCCO2)cc1 | 1.9 | -7.5 | 0.6 | 1.0 | 0.5 | -5.9 | ?
CCN(C(=O)COC(=O)c1cccc(S(=O)(=O)N(C)C)c1)c1c(N)n(Cc2ccccc2)c(=O)[nH]c1=O | -2.4 | . | 0.2 | 11.5 | 1.1 | -54.3 | 3464
CC(=O)c1ccc(OCc2cc(C(=O)NC(C)Cc3ccccn3)no2)cc1 (stereo not given) | 11.4 | 10.4 | 1.8 | 0.5 | 1.0 | -13.2 | 5125
CC(=O)Nc1ccc(S(=O)(=O)Nc2cccc(NC(=O)c3ccco3)c2)cc1 | -2.5 | -3.5 | 1.6 | -0.4 | 10.9 | -8.7 | 2466
CCOc1ccccc1CNC(=O)CN1C(=O)CSc2ccc(S(=O)(=O)N3CCOCC3)cc21 | 3.9 | -13.7 | 2.4 | -1.8 | 5.2 | -2.3 | 5333
O=C(CN1C(=O)NC2(CCc3ccccc3C2)C1=O)Nc1ccc(Cl)cc1F (stereo not given) | -6.0 | -3.3 | 1.7 | -1.9 | -5.8 | -28.0 | 2018
CCOC(=O)Nc1sc(C(=O)N(C)C)c(C)c1C(=O)OCC | 8.9 | 2.5 | 8.5 | 9.8 | 7.8 | 1.5 | 2427
Cc1ccc(C2C3C(=O)N(C)C(=O)C3[C@]3(C)C(=O)N(Cc4ccccc4)CC(=O)N23)o1 (stereo not given in full) | -1.0 | . | 7.7 | -1.2 | 0.4 | . | .
Cc1csc(-c2cccnc2)n1 | . | 1.6 | . | . | . | -7.1 | 9661
CCN(CC)CCn1c(NS(=O)(=O)c2ccc(Cl)cc2)nc2ccccc21 | 4.5 | -3.8 | -0.8 | 14.4 | 6.1 | -3.5 | 3332
COc1ccc(C(C)=O)cc1COc1ccc(F)cc1 | -0.4 | 0.1 | 9.0 | 5.9 | 6.8 | -1.0 | 4939
CC(C)CCNC(=O)c1csc2c1CCCCC2 | 3.2 | . | 7.2 | . | . | -22.3 | 2601
CNC(=O)COc1ccc(Nc2nnc(C)c3ccccc23)cc1 | 5.6 | -3.2 | -1.0 | 13.9 | 3.5 | . | 3609
CCC1(c2ccccc2)SCC(c2ccccc2)=NC1=O (stereo not given) | 1.8 | . | 1.7 | 14.7 | 10.3 | -18.6 | 3634
CC(C)Cn1c(N)c(C(=O)COC(=O)c2nccnc2N)c(=O)n(C)c1=O | 7.0 | . | 3.8 | 7.8 | 3.9 | . | 3842
CC(=O)N1CCN(CCN2C(C)=CC(=C(C#N)C#N)C=C2C)CC1 | 3.9 | 4.7 | 4.1 | -1.2 | -10.9 | 11.1 | 3220
O=C(CSc1nc2ccccc2o1)c1ccc2c(c1)OCCO2 | -7.6 | . | 0.0 | . | . | -31.9 | 2784
CN(C(=O)CN1CCN(c2ccccc2F)CC1)C1CCCc2ccccc21 (stereo not given) | 14.9 | -8.0 | 0.1 | 3.2 | 12.6 | -19.7 | 5974
CC(C)NS(=O)(=O)c1ccc(OCC(=O)NCc2cccnc2)cc1 | 2.3 | 3.5 | 3.1 | 5.0 | 6.5 | -4.2 | 5719
CC(OC(=O)c1cc(S(=O)(=O)N(C)C)ccc1N1CCCC1)C(=O)NCc1ccccc1 (stereo not given) | -0.1 | 4.9 | -1.4 | 3.1 | 1.0 | -7.9 | 4576
(cont.)
SMILES | ugtP null kill | BJeLR lethal | RN4220 kill | Mtb hypoxia rep | Mtb hypoxia rep growth | PrP 5UTR inh | Autofluor counter
CNC(=O)Nc1ccc(Cn2cc(C(F)(F)F)ccc2=O)cc1 | 4.1 | -1.2 | 5.6 | 14.9 | 10.0 | -10.1 | 4125
CC1CCCN(C(=S)SCC(=O)O)C1 (stereo not given) | 6.7 | -14.3 | 1.0 | 2.9 | -3.9 | -5.7 | 2075
CC(C)CC(NC(=O)C(NC(=O)OC(C)(C)C)C(C)C)C(=O)N1CCCC1C(N)=O (stereo not given) | 5.8 | -8.0 | 5.0 | 10.8 | 10.0 | -10.7 | 2890
CC1(C)CC(=O)C2=C(C1)NC(SCC(N)=O)=C(C#N)C21CCCCC1 | -12.2 | -0.6 | 7.1 | . | . | -5.2 | 2316
CCCCC(c1nnnn1CC1CCCO1)N1CCN(Cc2ccccc2)CC1 (stereo not given) | 0.2 | -12.4 | -0.3 | . | . | -19.2 | 3056
COC(=O)Cc1ccc(NC(=S)NCC(C)C)cc1 | 7.7 | . | 4.1 | 9.2 | 6.2 | -5.1 | 2456
Cc1cc(N2O[C@]34C=C[C@]25C[C@@H](O)CC[C@]5(C)C3CC[C@]2(C)[C@@H]([C@H](C)/C=C/[C@H](C)C(C)C)CC[C@H]24)no1 (stereo not given in full) | 2.1 | . | -0.7 | -7.6 | -1.3 | -7.5 | 3404
CCOc1ccc2nc(NCCCNS(=O)(=O)c3ccc(C)cc3)c(C#N)cc2c1 | 0.6 | 4.0 | 1.1 | -7.5 | 12.9 | 15.5 | 10009
Cn1cc(C(=O)N2CCN(c3ccccc3)CC2)c(=O)c2cc(S(=O)(=O)N3CCOCC3)ccc21 | 7.3 | -1.9 | 0.8 | 6.5 | 2.4 | -18.1 | 4997
CC(=NNC(=O)Cc1ccc(Cl)cc1)c1cccnc1 | 6.2 | . | -2.2 | 8.1 | -9.7 | . | .
CCN(CC1CCCN(CCc2cccc(F)c2)C1)C(=O)c1ccc(CSC)o1 (stereo not given) | -7.0 | 7.8 | -4.8 | -12.7 | 4.9 | -8.2 | 7270
COc1ccc(-c2csc3nc(C)n(-n4cccc4)c(=O)c23)cc1OC | 1.5 | -22.2 | 12.2 | 15.1 | 4.7 | -13.6 | 12742
O=C(/C=C/c1ccco1)Nc1cccc2cccnc12 | -2.6 | 3.6 | 8.6 | -6.7 | 4.6 | -42.8 | 3055
O=C(O)c1ccc(Nc2cnc3ccccc3n2)cc1 | 3.8 | 4.0 | 5.4 | 6.1 | 8.3 | -28.3 | 2015
COc1cc2c(cc1OC)C(c1ccccc1)N(C(=O)c1ccccc1)CC2 (stereo not given) | 5.9 | 4.9 | 5.7 | 4.5 | -5.5 | -39.0 | 3774
O=C(Nc1ccc2c(c1)OCO2)c1cc(-c2ccccc2Cl)on1 | -0.6 | -6.6 | 4.9 | 5.2 | 2.6 | -57.0 | 5393
CCOC(=O)c1cnc2ccc(Br)cc2c1NCCO | -4.7 | 4.3 | 1.7 | 3.6 | 0.8 | -18.3 | 8026
Cn1c(=O)c2ccccc2n(CC(=O)NC2CCCC2)c1=O | -2.9 | -5.7 | 4.1 | -12.6 | -0.8 | 2.8 | 5871
O=[N+]([O-])c1ccc(N2CCN(c3ccc(O)cc3)CC2)cn1 | 4.3 | -10.3 | 5.8 | 11.7 | -1.3 | -11.9 | 3741
CC1CCCN(C(=O)COc2ccc(-c3ccccc3)cc2)C1 (stereo not given) | 11.7 | -4.7 | -0.4 | 1.2 | 9.2 | -17.2 | 1915
Cc1ccc(-n2nc(C)c3onc(C)c3c2=O)cc1 | 0.5 | -6.4 | 2.4 | -1.5 | -3.6 | -8.9 | 4355
CCC(C)[C@H](NC(=O)N1CCn2c1nc1ccccc12)C(=O)NCCc1ccc(OC)c(OC)c1 (stereo not given in full) | -0.9 | -7.0 | 2.3 | -7.6 | 1.4 | -13.5 | 5791
CCOC(=O)c1ccc(NC(=S)N(CCCN2CCCC(C)C2)Cc2cccs2)cc1 (stereo not given) | -1.0 | -7.3 | 1.6 | 11.9 | -4.0 | -26.5 | 4499
Cc1ccc(CN2CCSc3ccc(C(=O)NC4CCCC4)cc32)cc1 | -1.0 | 6.5 | -2.9 | -1.0 | 5.2 | 6.2 | 5239
CCCCNC(=O)Nc1nnc(-c2ccccc2)o1 | 1.1 | -4.1 | 4.6 | 4.5 | 6.4 | -4.2 | 3823

Compound profiles, as listed above:
Cn1c(=O)c2ccccc2n(CC(=O)NC2CCCC2)c1=O reads ugtP null kill: -2.9; BJeLR lethal: -5.7; RN4220 kill: 4.1; Mtb hypoxia rep: -12.6; Mtb hypoxia rep growth: -0.8; PrP 5UTR inh: 2.8; Autofluor counter: 5871
CCOc1ccc2nc(NCCCNS(=O)(=O)c3ccc(C)cc3)c(C#N)cc2c1 reads ugtP null kill: 0.6; BJeLR lethal: 4.0; RN4220 kill: 1.1; Mtb hypoxia rep: -7.5; Mtb hypoxia rep growth: 12.9; PrP 5UTR inh: 15.5; Autofluor counter: 10009

The listing continues.
SMILES | ugtP null kill | BJeLR lethal | RN4220 kill | Mtb hypoxia rep | Mtb hypoxia rep growth | PrP 5UTR inh | Autofluor counter
CC(NS(=O)(=O)c1ccccc1)C(=O)Nc1nccs1 (stereo not given) | -1.5 | -7.9 | 1.5 | 8.3 | 2.7 | -32.4 | 8615
Cc1ccc(OCC(=O)N/N=C/c2cn[nH]c2-c2ccc(Cl)c(Cl)c2)cc1 | . | 0.6 | . | . | . | -17.3 | 4833
CC(C)NC(=O)N(C)C[C@H]1Oc2ccc(NC(=O)Nc3ccccc3)cc2C(=O)N([C@H](C)CO)C[C@@H]1C | 2.1 | . | -11.7 | 6.4 | 16.9 | -25.5 | 4423
CN(CC(=O)Nc1ccccc1Sc1ccccc1)Cc1nc2ccccc2c(=O)[nH]1 | 2.6 | -5.4 | 4.8 | -1.8 | 8.6 | -37.8 | 4303
CCOC(=O)N1CCC(NC(=O)CCc2nc(-c3ccc(C)cc3)no2)CC1 | 11.9 | -3.6 | -0.7 | . | . | -10.8 | 5416
CCOc1ccc(NC(=O)C2CCCN(S(=O)(=O)c3cnc[nH]3)C2)cc1 (stereo not given) | 7.4 | -7.7 | -0.8 | 7.6 | -0.6 | -26.0 | 5025
COC(=O)C(C)Oc1cc(C)cc2oc(=O)c3c(c12)CCC3 (stereo not given) | -7.6 | -5.0 | 2.4 | 6.1 | 10.3 | -7.0 | 3126
COc1ccccc1C(O)Cc1nc2ccccc2n1C (stereo not given) | . | -2.6 | . | . | . | -33.7 | 2546
O=C(Cn1nc(-c2ccco2)ccc1=O)Nc1ccc(Br)cc1 | 2.6 | -3.1 | 1.1 | 0.0 | 1.0 | -6.7 | 5499
Cc1onc(-c2ccccc2Cl)c1C(=O)Nc1ccc(-c2cn3cccnc3n2)cc1 | -9.9 | 2.9 | -5.4 | -6.9 | -9.7 | -16.2 | 16485*
CN(C)C(=O)c1cc(C(=O)c2ccccc2)c[nH]1 | 1.4 | 5.3 | 2.5 | 6.1 | 9.0 | -16.9 | 4418
Cc1cnc(NC(=O)CSC(=S)N2CCOCC2)s1 | 3.5 | 5.9 | 4.9 | 10.6 | -6.2 | -15.8 | 3932
Cc1ccc(SCC(Cc2ccccc2)N2CCN(CC(C)C)CCC2=O)cc1 (stereo not given) | 2.4 | . | 3.1 | 10.3 | 14.3 | . | .
COc1ccc(C2CC(c3ccccc3)=NN2C(=O)CN2CCN(Cc3ccccc3)CC2)cc1 (stereo not given) | -5.3 | 9.1 | -1.4 | -1.5 | 8.5 | -40.1 | 3807
NCCc1nnc(SCc2c(F)cccc2Cl)o1 | 9.9 | -1.3 | 6.2 | 0.8 | 1.4 | -27.4 | 10399

Source: PubChem (several laboratories)
